# Compound activity as filed in PubChem.
# HPGD block: HPGD (human) dehydrogenase inhibition; P15428; purified HPGD, NADH fluorescence kinetic, PGE2 substrate; Potency, µM, for the others: at the highest dose activity change, negative = inhibition, hits mostly inhibitors; hit rate 4.3% among 150,000; AID 894; active = well fitted inhibition curve with a large enough effect (not every such curve was filed as active); inconclusive = small, poorly fitted or top-dose-only effect, or another doubt; inactive = no such curve, though single readings can be large or run the other way;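 further: top concentration of the series not given in the record; plate controls included wells without enzyme; inactives centre near -10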
# Target sequence (P15428 whole entry, looked up): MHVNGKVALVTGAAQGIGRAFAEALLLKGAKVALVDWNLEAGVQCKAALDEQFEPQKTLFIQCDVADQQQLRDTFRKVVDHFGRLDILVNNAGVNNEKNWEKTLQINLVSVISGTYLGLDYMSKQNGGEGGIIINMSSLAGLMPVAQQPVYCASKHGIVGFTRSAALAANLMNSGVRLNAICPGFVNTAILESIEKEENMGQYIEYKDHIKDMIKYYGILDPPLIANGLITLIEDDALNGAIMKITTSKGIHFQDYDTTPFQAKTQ
#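 NADH formation kinetics: reaction with 30 uM PGE2 and 1 mM NAD+ (final), 20 nM enzyme, Tris-HCl pH 8 with Tween 20, after 15 min compound preincubation at room temperature. Fluorescence change, last versus first of five reads.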
# Active calls of the source: *; ? = inconclusive. On the % scale 0 is the no-effect control and ±100 the full control effect; potency means the concentration at half of the fitted maximal effect. An excerpt; the hit share may differ from the screen's.
smiles,HPGD block
COc1ccccc1NC(=O)COc1ccc(/C=N/NS(=O)(=O)c2ccc(C)cc2)cc1,16µM*
CCN(CC)S(=O)(=O)c1ccc(NC(=O)C(C)N(c2ccc(OC)cc2)S(C)(=O)=O)cc1 (stereo not given),-7%
O=C1CN(CC(=O)N2CCCCC2)c2ccccc2O1,8%
Clc1nc2sccn2c1/C=N/n1cnc2ccccc21,?
CCN1CCN(C(c2cccs2)C(C)NC(=O)c2ccccc2OC)CC1 (stereo not given),-13%
CCN1CCN(S(=O)(=O)c2ccc3c(c2)OCCO3)CC1,-1%
O=c1c2sccc2n(Cc2ccc(F)cc2)c(=O)n1-c1ccc(F)cc1,-10%
CC1CCN(S(=O)(=O)c2ccc(F)c(C(=O)O)c2)CC1,-16%
COc1cc(/C=N/Nc2nnc3c(n2)[nH]c2ccccc23)ccc1O,-7%
Cc1c(Br)c(C(F)(F)F)nn1CC(=O)NCC1CCCO1 (stereo not given),-10%
Cc1csc(NC(=O)CSc2nc(C(C)C)nc3c2c(=O)n(C)c(=O)n3C)n1,-3%
C=CCSC1=C(C#N)C(c2ccccc2Cl)C(C(=O)c2cccs2)C(O)(C(F)(F)F)N1 (stereo not given),-9%
OC(CNCc1ccccn1)c1ccccc1 (stereo not given),-1%
Cc1nc2cc(-c3ccccc3)nn2c(C)c1CCC(=O)N1CCN(c2ccccc2)CC1,?
CCOCCCNC(=O)C1CCC(CNS(=O)(=O)c2cccc3nsnc23)CC1 (stereo not given),25µM*
Cc1ccc(CN2CCc3c(OCC(=O)Nc4cc(C)ccc4C)cccc3C2=O)cc1,-14%
CC/C(O)=C(/C#N)c1nnc2n1CCCCC2,-5%
CCn1ccnc1C[C@@H]1COc2ccccc2O1,-8%
CCOC(=O)C1=NNC2(c3ccccc3)C(=O)N(c3cccc(Br)c3)C(=O)C12 (stereo not given),-14%
CC(C)C1C(=O)NC(=S)N1S(=O)(=O)c1ccc(C(C)(C)C)cc1 (stereo not given),-15%
Cc1ccc(S(=O)(=O)NCc2cccc([N+](=O)[O-])c2)cc1,-6%
Cc1cccc(N2CCN(C(=O)c3csc4ccccc34)CC2C)c1 (stereo not given),-23%
C/C=C(\C)C(=O)OC1C(OC(=O)C2(C)OC2C)c2cc3ccc(=O)oc3cc2OC1(C)C (stereo not given),?
COc1ccc(OC)c(NC=C2C(=O)OC3(CCCCC3)OC2=O)c1,?
O=C(/C=C/c1ccc(Cl)cc1Cl)NCCSc1ccccc1,-7%

# Reformatted with each value named: entries from further up
O=C1CN(CC(=O)N2CCCCC2)c2ccccc2O1
  HPGD block = 8%
CCN1CCN(C(c2cccs2)C(C)NC(=O)c2ccccc2OC)CC1 (stereo not given)
  HPGD block = -13%

# Back to the main list; the 2 compounds before the break are reprinted first.
smiles,HPGD block
COc1ccc(OC)c(NC=C2C(=O)OC3(CCCCC3)OC2=O)c1,?
O=C(/C=C/c1ccc(Cl)cc1Cl)NCCSc1ccccc1,-7%
CCCC1=Nc2cc(C(=O)NCc3ccco3)ccc2Sc2ccccc21,-20%
COc1ccccc1N1CCN(C(=O)c2cc(-c3ccc(Cl)cc3)on2)CC1,-14%
COc1ccc(NC(=O)c2cc3c(=O)n(C)c4ccccc4c3n2C)cc1OC,0%
CCC(O)c1cc2c(cc1NC(=O)c1cccs1)OCCO2 (stereo not given),-5%
CCN(CC)CCNC(=O)c1ccc2c(=O)n(CCc3ccccc3)c(=O)[nH]c2c1,?
O=C(CC1SC(=Nc2ccccc2)N(Cc2ccccn2)C1=O)Nc1cccc(Cl)c1 (stereo not given),-22%
C=CCOc1c(Br)cc(CNn2nnnc2N)cc1OCC,-1%
CN1CCN(C(=O)c2ccccc2N(Cc2ccccc2)S(C)(=O)=O)CC1,-6%
Cc1cc(C)c(S(=O)(=O)N2CCN=C2c2ccccc2)c(C)c1,-4%
Fc1ccc(N2CCN(c3ccc4c(C(F)(F)F)cc(C(F)(F)F)nc4n3)CC2)cc1,-11%
CC(NC(=O)c1ccccc1NC(=O)c1ccccc1)C(=O)N1CCOCC1 (stereo not given),0%
CC(C)OC(=O)CSc1nc(-c2ccc(F)cc2)nc2ccc(F)cc12,0%
COc1ccccc1C1/C(=C(/O)c2ccccc2)C(=O)C(=O)N1CCO (stereo not given),-20%
Clc1ccc2nc(N3CCN(c4ccccc4)CC3)sc2c1,-10%
O=C(Nc1ccc(Br)cc1Cl)c1cnccn1,-12%
COc1cc(C2C3=C(CC(C)(C)CC3=O)N(C)C(=O)N2C)cc(OC)c1OC (stereo not given),-2%
CCC(CC)C(=O)N(CCc1ccc(OC)cc1)Cc1nc2ccccc2c(=O)[nH]1,-7%
NC(=S)N/N=C/c1ccc(-c2cccc([N+](=O)[O-])c2)o1,16µM*
O=C1Nc2c(c(=O)[nH]c(=O)n2-c2ccccc2)C(C(F)(F)F)(C(F)(F)F)N1,-1%
COCCn1c(SCC(=O)Nc2ccc3c(c2)OCCO3)nc2c(c1=O)SC(C)C2 (stereo not given),-14%
COc1ccc2nc(C(C)O)[nH]c2c1 (stereo not given),-11%
Cn1c(SCC(=O)Nc2nccs2)nnc1C12CC3CC(CC(C3)C1)C2,-4%
Cc1cc(C)n(C(C[N+](=O)[O-])c2ccc(Cl)cc2)n1 (stereo not given),7.9µM*
COc1cc(C(=O)Nc2cc(C)c(OCC(=O)N3CCOCC3)c(C)c2)cc(OC)c1OC,-4%
Cc1c(NC(=S)N/N=C/c2cccc(O)c2)c(=O)n(-c2ccccc2)n1C,-3%

smiles,HPGD block
O=C(Cc1ccc(Cl)cc1)NCC(=O)N1CCCC1,-2%
O=C(NC(=S)Nc1ccccc1)c1ccc(-c2ccccc2)cc1,-15%
O=C(NCC(=O)N(CCN1CCOCC1)C(C(=O)NC1CCCC1)c1cccnc1)c1cccs1 (stereo not given),-5%
CCCCn1c(O)c(N=NC(=O)c2ccccc2NS(=O)(=O)c2cccs2)c2ccccc21,-13%
C#CCOCCOCCOCCNc1nc(N2CCOCC2)nc(N2CCN(C(=O)[C@H](C)n3cc(CCCN=C(N)N)nn3)CC2)n1,-12%
COCCn1c(SCC(=O)Nc2ccc(Cl)cn2)nc2ccccc21,-4%
NC(=O)COc1ncn(-c2ccccc2)n1,-12%
CC(/C=N\NC(=O)Cn1c(C)nc2ccccc21)=C\c1ccccc1,-21%
CCCCNC(=O)c1sc(=S)n(-c2ccccc2OC)c1N,32µM*
COc1ccc(C2CCCN2C(=O)Nc2cccc(C(C)=O)c2)cc1OC (stereo not given),-13%
COc1cc2c(cc1NS(=O)(=O)N1CCCCC1)oc1ccccc12,?
Cc1cc(C(=O)CSc2nnc(-c3cccnc3)n2-c2ccccc2F)c(C)n1CC1CCCO1 (stereo not given),-6%
CCOCC(=O)Nc1cc(-c2cn3cccnc3n2)ccc1C,?
Cc1cc(C(=O)CSc2n[nH]c(N)n2)c(C)n1-c1ccc(F)cc1,-13%
COCCSc1ccccc1C(=O)Nc1ccncc1,-25%
Cc1cccc(-c2nnc3n2N=C(c2ccccc2)CS3)c1,-12%
Cc1cc2c(c(=O)n1CCc1ccccc1)C(C(C)C)C(C#N)=C(N)O2 (stereo not given),-5%
COc1ccc(C(=O)NN2C(=O)C3CCC(C)(C2=O)C3(C)C)cc1 (stereo not given),-11%
CCOC(=O)c1cnn(-c2ccccc2)c1-n1cccc1C(=O)C(=O)Nc1ccc(F)cc1,-10%
CN(C)C(=O)CSc1nnc(-c2cnccn2)n1C,-18%
CCOC(=O)N1CCN(Cc2nc(N)nc(Nc3ccc(C)cc3)n2)CC1,-6%
COc1ccc(OC)c(Nc2nc(-c3sc(NC(=O)c4ccccc4)nc3C)cs2)c1,-27%
O=C(NCc1ccccn1)c1coc(=O)c(Br)c1,?
O=C1c2ccccc2C(=O)N1/N=C/c1ccc(O)c(O)c1,-30%
COc1ccc(-n2ncc3c(=O)n(CC(=O)N4c5ccccc5CC4C)cnc32)cc1 (stereo not given),-14%

# Five compounds already listed, sorted by length of the SMILES, low to high.
smiles,HPGD block
CCCCNC(=O)c1sc(=S)n(-c2ccccc2OC)c1N,32µM*
O=C1c2ccccc2C(=O)N1/N=C/c1ccc(O)c(O)c1,-30%
COCCn1c(SCC(=O)Nc2ccc(Cl)cn2)nc2ccccc21,-4%
CC(/C=N\NC(=O)Cn1c(C)nc2ccccc21)=C\c1ccccc1,-21%
Cc1cc2c(c(=O)n1CCc1ccccc1)C(C(C)C)C(C#N)=C(N)O2 (stereo not given),-5%

# (further entries)
smiles,HPGD block
CCN1C(=O)c2cccc3c(S(=O)(=O)N(C(=O)c4ccncc4)c4ccc(OC)cc4)ccc1c23,?
O=C(O)/C(=C\c1ccc(O)cc1)c1cccc2ccccc12,1%
COC(=O)c1ccc(C(/C=C/[C@@H](C)C(=O)N[C@H](C)CO)NC(=O)OCc2ccccc2)cc1 (stereo not given in full),-6%
Cc1cccc(NC(=O)CN(C)S(=O)(=O)c2cccc3cccnc23)c1,-1%
O=C(/C=C/c1ccc(Cl)c([N+](=O)[O-])c1)Nc1ccc(NC(=O)c2ccco2)cc1,-12%
CC(C)(CO[C@H]1C[C@H]2CC[C@@]1(C)C2(C)C)[N+](=O)[O-],-12%
O=C(O)/C=C/c1ccc2ccccc2n1,-5%
O=c1cc(CSc2nnc(COc3ccc(Cl)cc3)o2)c2ccccc2[nH]1,-21%
O=C(Nc1nc(-c2cccs2)cs1)C1=COCCO1,-6%
Cc1ccc(-n2c(O)cnc2Nc2nc(C)cc(C)n2)cc1,-4%
CCCN1C2=NCCN2c2cc(C)c(C)cc21,-9%
COC(=O)N1C2=C(c3ccccc3[C@@H]1CC(=O)Nc1ccc3ccc4cccc5ccc1c3c45)[C@@H]1C(=O)N(c3ccccc3)C(=O)[C@@H]1[C@H](C)C2,?
Brc1ccc(OCc2nnc(SCC3CCCCC3)o2)cc1,-1%
O=C(COC(=O)C1CCN(S(=O)(=O)c2cc([N+](=O)[O-])ccc2Cl)CC1)Nc1ncc(Cl)cc1Cl,?
Cc1sccc1/C=N/NC(=O)c1cccc2ccccc12,-7%
Cc1ccc(NC(=S)NNC(=O)c2c([N+](=O)[O-])c(C)nn2C)cc1,-9%
Nn1cnnc1SC1CCCCC1NS(=O)(=O)c1ccccc1 (stereo not given),-6%
Cc1nc(NCc2ccco2)c2c3c(sc2n1)CCC3,-9%
CCOC(=O)C1CCCN(S(=O)(=O)c2ccc(OC)c3ccccc23)C1 (stereo not given),-14%
O=C(Nc1cc(=O)c2ccccc2o1)N1CCOCC1,-22%
O=C(CCl)NCCCCCCCCCNC(=O)CCl,-10%
CC(C)NC(=O)N1CCC2(CC1)CCN(C(=O)c1ccncc1)CC2,-6%
Cc1cc(C)nc(SCCn2c(N3CCC(C)CC3)nc3c2c(=O)n(C)c(=O)n3C)n1,-10%
COc1cc(/C=C\C(=O)NCc2ccc3c(c2)cc(C)n3C)cc(OC)c1OC,?
O=C(CN1CCN(S(=O)(=O)c2ccccc2)CC1)Nc1cccc(C(F)(F)F)c1,-5%

smiles,HPGD block
Cc1ccccc1OC(=O)n1c(=S)oc2cc(Cl)ccc21,?
OC[C@@H](O)CNc1ncnc2ccccc12,-9%
COc1ccc(CN2CCN(S(=O)(=O)c3ccccc3)CC2)c(OC)c1,-4%
CCCCOc1cccc(OCC(=O)Nc2nc3ccccc3[nH]2)c1,-8%
CCCc1cc(=O)n2[nH]c(-c3ccc(Br)cc3)cc2n1,-17%
COc1cc2ncnc(NCc3ccccc3)c2cc1OC,?
Cc1noc(/C=C/N(C)C)c1S(=O)(=O)N1CCN(c2ccccc2)CC1,-14%
CCn1c(-c2cc(-c3ccc(OC(C)C)cc3)nc3ccccc23)n[nH]c1=S,?
CCC(=O)N1CCc2cc(S(=O)(=O)NCCC(=O)N3CCN(Cc4ccccc4)CC3)ccc21,-2%
Cc1cccc(Cn2c(C(C)O)nc3ccccc32)c1 (stereo not given),-3%
C[C@@H](Oc1ccc(Oc2cnc3ccc(Cl)cc3n2)cc1)C(=O)O,18µM*
CC(=O)Cc1nsc(NC(=O)C2Cc3ccccc3C(=O)O2)n1 (stereo not given),-14%
COc1ccccc1C(=O)NC(=S)N1CCCc2ccccc21,8.9µM*
CC(=O)OC1CC2C(C)(C)C(O)CC(O)[C@@]2(C)C2CC[C@@]3(C)C(=CC(=O)OC3c3ccoc3)[C@]12C (stereo not given in full),20µM*
Cc1ccc(-n2nc3c(=O)n(CC(=O)c4ccc(F)cc4)nc(C)c3c2C)cc1,-8%
COc1ccc(-n2c(=O)c3ccccc3n(Cc3ccc(F)cc3)c2=O)cc1OC,-10%
COc1ccc(N2CCN(C(=O)C3CC(O)CN3S(=O)(=O)c3ccc([N+](=O)[O-])cc3)CC2)cc1 (stereo not given),-2%
CC(C)(C)c1ccc(C(=O)NNC(=S)NCC2CCCO2)cc1 (stereo not given),-2%
Cc1ccc(-n2c(Cc3cccn3C)nnc2SCC(=O)NC2CCCCC2)cc1,-4%
O=C(O)C1C2C=CC(C2)C1C(=O)NCc1ccoc1 (stereo not given),-3%
Clc1ccc(-c2nnc(CSc3nnc(-c4cccs4)n3Cc3ccccc3)o2)cc1,-8%
